Compound activity: PubChem BioAssay, Sanford-Burnham Center for Chemical Genomics
HNF4A DNA FP = change in binding of human HNF4 alpha to DNA. AID 1224865. P41235. activity change, % at 10 µM. 360,000 compounds, 0.3% hits. HNF4a-FITC DNA binding, fluorescence polarization, 1 h; in the data active = activity change above about 30%, passing the limit was not always enough;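 also: controls were the assay level and a saturating level of protein; the project sought stronger binding though the title names inhibitors; some compounds called inactive have numbers as strong as hits; positive values seem to mean higher polarization but the record does not say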
Target sequence (P41235 whole entry, looked up): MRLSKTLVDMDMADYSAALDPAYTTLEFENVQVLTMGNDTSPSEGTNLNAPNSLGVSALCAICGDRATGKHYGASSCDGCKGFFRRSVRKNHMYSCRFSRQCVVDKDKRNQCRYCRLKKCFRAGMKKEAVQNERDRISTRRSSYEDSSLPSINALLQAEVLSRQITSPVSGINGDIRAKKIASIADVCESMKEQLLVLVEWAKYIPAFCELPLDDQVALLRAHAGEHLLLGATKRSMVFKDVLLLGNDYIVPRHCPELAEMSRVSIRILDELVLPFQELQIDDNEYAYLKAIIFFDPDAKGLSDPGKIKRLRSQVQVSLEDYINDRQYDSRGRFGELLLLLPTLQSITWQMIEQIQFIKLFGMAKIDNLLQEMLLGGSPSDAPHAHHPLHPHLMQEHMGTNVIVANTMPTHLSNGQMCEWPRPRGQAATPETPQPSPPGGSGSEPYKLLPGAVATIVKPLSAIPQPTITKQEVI
* = called active by the depositor. Only part of the results is shown. The share of hits here may be higher or lower than overall.

SMILES	HNF4A DNA FP
CCOC(=O)[C@]12CCCC=C1N(Cc1ccccc1)C(=O)[C@H](CC(=O)NCCCOC)C2	-2.1
CCOC(=O)[C@]12CCC=C1N(CCC1=CCCCC1)C(=O)[C@H](CC(=O)N1CCN(C(=O)C3CC3)CC1)C2	1.5
COc1ccccc1-c1cnc(C(O)c2cc(Cl)cc(Cl)c2)[nH]1 (stereo not given)	-2.5
CCOC(=O)[C@]12CCCC=C1N(Cc1ccc(Cl)cc1Cl)C(=O)[C@H](CC(=O)N1CCSCC1)C2	-2.0
COc1ccccc1-c1cnc(C(O)c2ccc(C)cc2)[nH]1 (stereo not given)	4.2
C#Cc1cccc(Nc2nc(NC(C)C)nc3ccsc23)c1	4.7
Cc1ccc(-c2nc3cc(C)c(Br)c(C)n3c2Cc2cccc(Cl)c2)cc1	5.8
COC(=O)c1ccc2nc(-c3ccc(F)cc3)c(CC3CCCCC3)n2c1	11
CC(=O)NCCNC(=O)C1(C)Cc2c(-c3ccc(C(N)=O)cc3)ccnc2O1 (stereo not given)	-6.6
O=C(OC1CC2CC1[C@H]1CCCCN1C2=O)N1CCN(c2ccccc2)CC1 (stereo not given in full)	-0.9
CC(O)(c1ccccc1)c1nc(-c2cccc(C#N)c2)cs1 (stereo not given)	-0.6
O=C(NCCc1ccccc1)C1Cc2c(-c3ccccc3)ccnc2O1 (stereo not given)	-5.2
CN(C)CCCNc1nc2cc(-c3ccc4c(ccn4C)c3)sc2c(=O)n1C	5.0
OC(c1cc(F)cc(Cl)c1)c1ncc(-c2cccc(C(F)(F)F)c2)[nH]1 (stereo not given)	3.7
CCNC(=O)C1(C)CCCN1C(=O)c1c(F)cccc1F (stereo not given)	3.2
CC1=C(C(=O)N(C(C)C)C(C)C)CC(CC(=O)NC2CC2)C(=O)N1Cc1ccc(C(C)(C)C)cc1 (stereo not given)	10
COc1ccc(CCc2nc3ccccc3n2C(CCc2ccccc2)c2nc3ccccc3[nH]2)cc1 (stereo not given)	16
COc1ccccc1C(NC(=O)C1CCN(CCOc2ccc(Cl)cc2)CC1)c1ccccn1 (stereo not given)	-1.5
COc1ccc(CC(N)c2csc(NC(=O)NCCc3ccccc3)n2)cc1 (stereo not given)	-1.1
CN1OC[C@@H]2C(=O)N3CCc4c([nH]c5ccccc45)[C@@H]3C[C@@H]21	-2.1
COc1cc(NC(=O)c2ccc(-c3cnn(C)c3)c3ccoc23)cc(OC)c1OC	4.5
O=C(c1ccc(-c2ccccc2)cc1)N1CCN(c2ccc3c(c2)C2CC3CCN2C(=O)OCc2ccccc2)CC1 (stereo not given)	-6.0
CCOC(=O)C1(C)CCCN1C(=O)c1ccc(Cl)nc1 (stereo not given)	4.4
CC1(C(=O)NS(=O)(=O)c2ccccc2)CCN1C(=O)c1ccccc1 (stereo not given)	0.0
CC(C)C[C@H]1CNC(=O)C(=O)N1C[C@@H]1CCCN1C[C@H](Cc1ccccc1)N1C[C@H](CC(C)C)N(CC2CCCCCC2)C(=O)C1=O	-2.4

The listing continues:
SMILES	HNF4A DNA FP
CC1(Cc2ccc(F)cc2)C(=O)Nc2c(Cl)ccc(Cl)c21 (stereo not given)	-1.2
CC(N)c1csc(Nc2ccc(C(=O)NCCO)cc2)n1 (stereo not given)	-2.4
O=C(NN1CCCCC1)NN1CCCCC1	0.7
CCCN1CCC(C(=O)NC(c2ccc(Cl)cc2)c2ccsc2)CC1 (stereo not given)	6.1
CC(C)CC(N)c1csc(Nc2ccc(C(F)(F)F)cn2)n1 (stereo not given)	-0.1
O=C1CCC2CN3CCc4c([nH]c5ccccc45)C3CC2C1 (stereo not given)	-28
Clc1cccc(-c2nc3c4ccccc4ccn3c2Cc2ccsc2)c1	2.4
CC1(C)OC(=O)C2=C(C[C@@H](C3CCCCC3)O[C@@H]2c2ccc(Cl)cc2)O1	-3.0
CS(=O)(=O)/C(C#N)=C/c1cccn1S(=O)(=O)c1ccc([N+](=O)[O-])cc1	4.5
Cc1ccc(Cc2c(-c3ccccc3)nc3cc(C)c(Br)c(C)n23)cc1	6.6
Cc1cccc(C)c1Cn1c(C)c(C(=O)NCc2ccc([N+](=O)[O-])cc2)sc1=O	-4.4
COc1cc(Cn2c3ccc(NC(=O)CCc4cccnc4)cc3c(=O)n2C)ccc1F	-0.8
CC(C)CC(N)c1csc(Nc2ccccn2)n1 (stereo not given)	1.7
COc1cccc(-c2sc3ccc(OC)cc3c2-c2cnc(N3CCOCC3)nc2)c1	0.6
CCCNC(=O)C1(C)CCCN(CC(=O)c2ccccc2OC)C1 (stereo not given)	4.9
O=C1NC[C@H](Cc2ccc(O)cc2)N(CCc2cccc(F)c2)C1=O	-2.1
CSc1ccc(CN2CCC(C)(Oc3ccccc3)C2)cc1 (stereo not given)	-1.8
COc1ccc(Cn2cc(CN3CC(N4CCCC4)CS3(=O)=O)nn2)cc1 (stereo not given)	-2.5
CN(C)CCN1CCN(C2CN(Cc3cn(Cc4ccc(Cl)cc4)nn3)S(=O)(=O)C2)CC1 (stereo not given)	-1.1
CCCCNC(=O)C1(C)CCN1C(=O)c1cc2ccccc2s1 (stereo not given)	2.1
CCOC(=O)C1(C)CCCN(C(=O)c2cccc3ccccc23)C1 (stereo not given)	3.7
COc1ccc(C(=O)N2CCCCC2c2cc(C(=O)Nc3ccc(OC)cc3C)no2)cc1 (stereo not given)	2.4
C[C@H](c1ccccc1)N1C[C@H](COCc2ccccc2)Oc2cc(N3CCC[C@H]3C(N)=O)ccc2S1(=O)=O	-1.1
O=S1(=O)N[C@@H](Cc2ccccc2)COc2cc(N3CC[C@H](O)C3)ccc21	-2.4
COC(=O)c1ccc(Cn2c(C)c(C(=O)NCc3ccc([N+](=O)[O-])cc3)sc2=O)o1	0.9

The list goes on:
SMILES	HNF4A DNA FP
CC(=O)Nc1cncc(-c2cccc(C(=O)NC3CC3)c2)n1	2.1
CCCNC(=O)C1(C)CCN(Cc2csc(-c3ccc(Cl)cc3)n2)C1 (stereo not given)	0.2
Cc1ccc([C@H]2C[C@@H](n3cc(COC(=O)c4ccccc4)nn3)[C@H](O)CN2C(=O)c2cccs2)cc1	0.4
COc1ccc(-c2csc(C(C)(O)c3ccc(F)c(F)c3)n2)cc1OC (stereo not given)	-1.8
O=C(NCc1ccccc1)c1cc(C2CCCCN2S(=O)(=O)c2cccc3cccnc23)on1 (stereo not given)	0.3
COCCNc1nc(Nc2ccc(Cl)cc2F)c2sccc2n1	3.2
CCCCn1nnnc1C(c1ccccc1)N1CCN(c2ccc(C(F)(F)F)cc2[N+](=O)[O-])CC1 (stereo not given)	2.4
CCN(CC)C(=O)c1cccc(-c2csc(C(C)(NC(C)=O)c3ccccc3)n2)c1 (stereo not given)	-2.2
O=C(C[C@@H]1C[C@H]2c3cc(NC(=O)NC4CCCCC4)ccc3O[C@H]2[C@H](CO)O1)NC1CCCCC1	0.1
c1ccc2c(C(c3nnnn3-c3ccc4c(c3)OCCO4)N3CCCCC3)ccnc2c1 (stereo not given)	-1.4
N#Cc1cccc(NC(=O)c2cc(C3CCCCN3S(=O)(=O)c3ccccc3)on2)c1 (stereo not given)	-1.8
CC(=O)c1cccc(NC(=O)C2Cc3c(-c4cccc(C(C)=O)c4)ccnc3O2)c1 (stereo not given)	-2.7
CC1(C(=O)NS(=O)(=O)C2CC2)CCCN(C(=O)c2ccco2)C1 (stereo not given)	-3.9
CCNC(=O)C1CCCN(Cc2cc(C(F)(F)F)ccc2Cl)CC1 (stereo not given)	-3.3
CCCNC(=O)c1cc(C2CCCCN2C(=O)c2ccc(C#N)cc2)on1 (stereo not given)	4.7
Cc1ccsc1/C=C1\Oc2cc(O)ccc2C1=O	-48
CN1OC[C@@H]2CN(Cc3ccccc3)[C@H](c3ccc(N4CCCCC4)cc3)C[C@@H]21	22
N#Cc1ccccc1OCC(=O)Nc1nc(-c2ccccn2)cs1	-0.9
COCCCn1cc(CN2CC(N3CCN(Cc4ccccc4F)CC3)CS2(=O)=O)nn1 (stereo not given)	1.4
Cc1cccc(C(O)c2ncc(-c3ccc(Cl)cc3)[nH]2)c1C (stereo not given)	-15
COc1ccc(CNC(=O)c2cccc3c(-c4ccc(F)c(F)c4)coc23)cc1OC	-2.6
CC(=O)c1cccc(-c2ccnc3c2CC(C(=O)Nc2cccc(NS(C)(=O)=O)c2)O3)c1 (stereo not given)	9.9
CC(C)(C)OC(=O)N1CCc2onc(-c3ccc(-n4cc(C5=CCCCC5)nn4)cc3)c2C1=O	-1.9
CC1(Cc2ccc(Cl)cc2)C(=O)Nc2ccc(S(=O)(=O)NC3CCCCC3)cc21 (stereo not given)	2.1
O=C(/C=C/[C@H]1O[C@@H](n2cnc3c(NC(=O)c4ccccc4)ncnc32)[C@H](O)[C@@H]1O)NCC1CCCCC1	-1.2

Some of the entries so far, with values ahead of the structure.
HNF4A DNA FP	SMILES
-0.9	N#Cc1ccccc1OCC(=O)Nc1nc(-c2ccccn2)cs1
-0.8	COc1cc(Cn2c3ccc(NC(=O)CCc4cccnc4)cc3c(=O)n2C)ccc1F
16	COc1ccc(CCc2nc3ccccc3n2C(CCc2ccccc2)c2nc3ccccc3[nH]2)cc1 (stereo not given)

Later entries:
SMILES	HNF4A DNA FP
CNC(=O)C[C@@H]1CC[C@@H]2[C@H](COC[C@H](O)CN2S(=O)(=O)c2ccccc2Cl)O1	0.4
COc1ccc(-c2nc3cc(C)c(Br)c(C)n3c2Cc2ccc(C)cc2)cc1OC	6.2
CO[C@@H]1CN(C)C(=O)c2ccc(NC(=O)C3CCC3)cc2OC[C@H](C)N(CC2CCCCC2)C[C@H]1C	-3.9
CCCNC(=O)C1(C)CCN(C(=O)C(c2ccccc2)c2ccccc2)C1 (stereo not given)	2.6
Cc1ccccc1S(=O)(=O)NC(=O)C1(C)CCN1C(=O)C1(c2ccc(Cl)cc2)CC1 (stereo not given)	1.2
COc1ccc(NC(=O)C2(C)CCCN(C(C)=O)C2)cc1F (stereo not given)	2.7
CCc1ccc(N2C=C(C(=O)OC)C(c3ccc(OC)cc3)C(C#N)=C2N)cc1 (stereo not given)	2.9
CSCCC(C(=O)Nc1c(C)cccc1C)n1c(-c2ccc(-c3ccccc3)cc2)nc2ccccc21 (stereo not given)	7.2
COc1cccc(C(=O)c2ccccc2C(=O)O)c1	4.1
CC1CCCCN1CCCNC(=O)c1ccc2c(c1)NC(=O)CN2C (stereo not given)	-0.1
CC(O)(c1cccnc1)c1nc(-c2cccc3cccnc23)cs1 (stereo not given)	3.2
COc1ccc(-c2cc3c(c4c2ccn4C)C2CCC3O2)cc1OC (stereo not given)	-6.0
CC(C)NC(=O)C1(C)CCN1C(=O)C1(c2ccccc2)CC1 (stereo not given)	2.4
Cc1nc2sccn2c(=O)c1S(=O)(=O)Nc1ccc(N2CCOCC2)cc1	-2.9
CCCCNC(=O)C1c2ccccc2OCC(=O)N1CC(F)(F)F (stereo not given)	-0.7
CC1=C(C(=O)N(C)C)CC(CC(=O)NCCCN(C)C)C(=O)N1Cc1ccc(F)cc1 (stereo not given)	-1.5
CCOC(=O)[C@]12CCCC=C1N(Cc1ccccc1)C(=O)[C@H](CC(=O)NCC13CC4CC(CC(C4)C1)C3)C2	1.0
CC(C)C[C@H]1CN(CCCC[C@H]2CNC(=O)C(=O)N2CCC2CCCCC2)C(=O)C(=O)N1CC1CCCCC1	0.8
O=C(NCc1cccs1)c1csc([C@@H]2O[C@H](CO)[C@H](O)[C@H](O)[C@H]2O)n1	4.4
CCOC(=O)[C@]12CCC=C1N(CCC1=CCCCC1)C(=O)[C@H](CC(=O)NCCCCc1ccccc1)C2	3.4
O=C(Nc1ncccc1O)c1ccc(Cl)c(S(=O)(=O)N2CCCC2)c1	1.6
Cc1cc(Br)cn2c(Cc3ccccc3C(F)(F)F)c(C3CCCCC3)nc12	3.4
COC(=O)C[C@H]1CC[C@@H]2[C@H](COC[C@H](O)CN2S(=O)(=O)c2ccccc2OC)O1	0.2
CCCCCNC(=O)C(c1ccnc2ccccc12)n1c(=O)c(-c2ccccc2)nc2ccccc21 (stereo not given)	-2.9
COCCNC(=O)C1CCCN(C(=O)c2cncc(Br)c2)CC1 (stereo not given)	7.2

Next part:
SMILES	HNF4A DNA FP
Cc1ccc(S(=O)(=O)N2[C@H](CC(=O)c3ccccc3)OC[C@@H]2C(C)C)cc1	1.3
CC1(C(=O)NS(=O)(=O)C2CC2)CCCN(C(=O)COCc2ccccc2)C1 (stereo not given)	3.0
COc1cccc(NC(=O)C2(C)CCCN2C(=O)C(C)C)c1 (stereo not given)	0.4
CN(CC1CCCN(CCc2ccccc2F)C1)C(=O)c1cc2ccccc2o1 (stereo not given)	-0.5
O=NN(C(=O)NCc1cccnc1)C1CCCCC1	1.9
CCOC(=O)C(=O)N(C)c1c(CC)nc2c(OCc3cccc(OC)c3)cccn12	2.2

Arranged by value in HNF4A DNA FP (lowest first): 6 of the compounds above.
SMILES	HNF4A DNA FP
CN(CC1CCCN(CCc2ccccc2F)C1)C(=O)c1cc2ccccc2o1 (stereo not given)	-0.5
COc1cccc(NC(=O)C2(C)CCCN2C(=O)C(C)C)c1 (stereo not given)	0.4
Cc1ccc(S(=O)(=O)N2[C@H](CC(=O)c3ccccc3)OC[C@@H]2C(C)C)cc1	1.3
O=NN(C(=O)NCc1cccnc1)C1CCCCC1	1.9
CCOC(=O)C(=O)N(C)c1c(CC)nc2c(OCc3cccc(OC)c3)cccn12	2.2
CC1(C(=O)NS(=O)(=O)C2CC2)CCCN(C(=O)COCc2ccccc2)C1 (stereo not given)	3.0
